# gsp ag = qHTS for Agonist of gsp, the Etiologic Mutation Responsible for Fibrous Dysplasia/McCune-Albright Syndrome: qHTS | AID 624287, 2012 | gsp mutant cells, cAMP HTRF, 30 min; control for the full effect not named in the record | actives 0.13% (n = 340,000) | Potency, µM (highest dose often 76.9 µM), without a hit: at the highest dose activation (cAMP increase), actives largely listed as activators; active = well fitted activation curve with a large enough effect; inconclusive = small, poorly fitted or top-dose-only effect, or another doubt; inactive = no such curve, though single readings can be large or run the other way; cell line not stated here;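 further: phosphodiesterase inhibitor Ro 20-1724 added with compounds to block cAMP breakdown; potency means the concentration at half of the fitted maximal effect; nearly all actives have a fitted effect of over 60% in size; about a fifth of the inactives were tested at one dose only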
#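 Cells stably selected in G418 were plated at 2000/well, grown 16-24 hr, then given compounds in DMSO with the PDE inhibitor […] (300 uM solution added) for 30 min at 37C; cAMP was read by HTRF.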
# Menin MLL FP FL = qHTS Assay for Inhibitors Targeting the Menin-MLL Interaction in MLL Related Leukemias: Competition With Fluorescein Labeled MLL-derived Peptide. Fluorescence polarization, fluorescein-MLL peptide displacement from menin. FP activity change, % at 61.4 µM. 290,000 tested, under 10 active. AID 1766, 2009; inconclusive = falling polarisation curve, or a change in total fluorescence; inactive = total fluorescence flat and polarisation flat or rising; no compound was filed as active; the % refers to the polarisation; negative = inhibition;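 further: % of control where 0% means no effect; inhibitors lower the polarisation; unlabelled MLL peptide was the positive control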
# ClpP mod = qHTS Assay for Activators of ClpP; Potency, µM (doses to about 57.5 µM), for inactives: top-dose activity change, negative = active; purified B. subtilis ClpP, FRET peptide cleavage, 20 min; ATP-dependent Clp protease proteolytic subunit (Bacillus subtilis (strain 168)), P80244; AID 651965, 2013; actives 1.9% (n = 340,000); active = well fitted falling curve with a large enough effect; inconclusive = small, poorly fitted or top-dose-only effect; inactive = no such curve, though single readings can be large or run the other way; further: potency means the concentration at half of the fitted maximal effect; the source files actives as falling curves though it sought activators and does not explain the sign; nearly all actives have a fitted effect of over 65% in size; many hits overshoot -100%
# Target sequence (P80244 whole entry, looked up): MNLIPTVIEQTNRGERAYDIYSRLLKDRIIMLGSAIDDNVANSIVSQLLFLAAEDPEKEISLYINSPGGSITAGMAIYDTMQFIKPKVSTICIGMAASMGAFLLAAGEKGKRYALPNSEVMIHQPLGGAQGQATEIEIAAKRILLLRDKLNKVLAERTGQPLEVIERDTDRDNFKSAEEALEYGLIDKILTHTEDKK
#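 Purified B. subtilis ClpP, 10 microg/mL final in Tris/HCl pH8 with KCl, BSA, glycerol and Tween-20, cleaved an Abz/nitrotyrosine-quenched decapeptide. Fluorescence (ex 320, em 430) was read at 0 and 20 min at room temperature. Delta was normalized to 5.8 microM ADEP and DMSO/no-enzyme controls.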
# D2 agonist = Beta-Arrestin HTS for Positive Allosteric Modulators of the Human D2 Dopamine Receptor: Agonists; D(2) dopamine receptor (Homo sapiens), P14416; DiscoveRx PathHunter D2 beta-arrestin, luminescence, 90 min; 100% = 57 uM dopamine signal; activation, % (no concentration beside the values); actives 0.084% (n = 360,000); AID 624465, 2012; in the data active = activation above about 40%; inconclusive = about 15% to 40%; inactive = below about 15%; further: compound concentration not given in the record; the text of the record calls up to 30% inactive
# Target sequence (P14416 whole entry, looked up): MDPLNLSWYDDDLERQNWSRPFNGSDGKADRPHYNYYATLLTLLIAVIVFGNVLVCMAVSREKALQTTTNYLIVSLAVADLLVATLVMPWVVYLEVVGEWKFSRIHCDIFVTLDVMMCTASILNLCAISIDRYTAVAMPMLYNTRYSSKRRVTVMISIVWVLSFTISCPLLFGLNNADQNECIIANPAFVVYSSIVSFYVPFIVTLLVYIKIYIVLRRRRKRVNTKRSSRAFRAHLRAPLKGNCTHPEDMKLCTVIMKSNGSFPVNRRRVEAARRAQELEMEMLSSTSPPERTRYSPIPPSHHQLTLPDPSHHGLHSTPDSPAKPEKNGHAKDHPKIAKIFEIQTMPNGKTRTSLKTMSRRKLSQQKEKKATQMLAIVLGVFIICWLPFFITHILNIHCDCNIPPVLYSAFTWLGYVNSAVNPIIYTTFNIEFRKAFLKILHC
#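 Agonist mode: compounds alone added to overnight-plated D2 PathHunter cells for 90 min at 37 C, with 57 uM final dopamine (EC100) defining full response. Beta-arrestin recruitment detected by chemiluminescent reagent, read after 1 h at ambient temperature.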
# Sfp PPTase inh = qHTS Assay for Inhibitors of Bacillus subtilis Sfp phosphopantetheinyl transferase (PPTase); Biochemical Sfp PPTase activity, qHTS; Potency, µM, inactives show max response, negative = inhibition, usual class: inhibitors; actives 3.5% (n = 310,000); 4'-phosphopantetheinyl transferase ffp (Bacillus subtilis), Q9F4F7; AID 1490, 2009; active means well fitted inhibition curve with a large enough effect; inconclusive means small, poorly fitted or top-dose-only effect, or another doubt; inactive means no such curve, though single readings can be large or run the other way;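 further: the enzyme is Sfp with the accession as filed and its product quenches rhodamine fluorescence; potency means the concentration at half of the fitted maximal effect; 0% = enzyme reaction without inhibitor and -100% = no enzyme wells; top concentration of the series not given in the record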
#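 Compounds were incubated with enzyme (final 15 nM) for 15 min at room temperature before substrate addition started the reaction. Fluorescence at 525 nm excitation, 598 nm emission was recorded immediately and after 30 minutes.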
# gsp antagonist = qHTS for Antagonists of gsp, the Etiologic Mutation Responsible for Fibrous Dysplasia/McCune-Albright Syndrome: qHTS | gsp-mutant cells, cAMP HTRF, 30 min; control for the full effect not named in the record | Potency, µM (top dose mostly 76.9 µM), inactives show at the top dose activity change, negative = inhibition, usual class: inhibitors | actives 0.4% (n = 340,000) | AID 624288, 2012; active = falling curve of any shape with a large fitted effect; inconclusive = falling curve, mostly with a smaller effect; inactive = flat or rising curve; cell line not stated here;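 further: intracellular cAMP measured with PDE inhibitor Ro 20-1724 present during compound exposure; potency means the concentration at half of the fitted maximal effect; on the % scale 0 is the no-effect control and ±100 the full control effect; nearly all actives have a fitted effect of over 65% in size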
#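 Cells, 2000/well, grown 16–24 h in DMEM 10% FBS with 0.5 mg/ml G418, then compounds plus […] (300 uM addition stock), 30 min at 37C. cAMP read by HTRF (cAMP-d2 and anti-cAMP antibody-K in lysis buffer) after 30 min RT.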
# PINK1 expr mod = A Quantitative High throughput Screen to Identify Chemical Modulators of PINK1 Expression; PINK1 immunofluorescence, high-content cytometry, 24 h; Potency, µM (highest dose often 76.6 µM), for inactives: at the top dose activation (PINK1 increase), most hits filed as activators; AID 624263, 2012; actives 0.2% (n = 410,000); active = well fitted activation curve with a large enough effect; inconclusive = small, poorly fitted or top-dose-only effect; inactive = flat fitted curve, though single readings scatter; cell line not stated here;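 further: potency means the concentration at half of the fitted maximal effect; % of control where 0% means no effect; nearly all actives have a fitted effect of over 65% in size; a mitochondrial uncoupler was the plate control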
#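 Stable cell line, 250 cells/well, 12 h attachment; compounds pinned at 5 concentrations, 24 h; CCCP control. Fixed with nuclear dye, primary antibodies 12 h at 10 degrees C, secondary plus cell stain; laser-scanning cytometer read.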
# The depositor's hits bear a star; ? = inconclusive; · = no result given; & = joins results of further samples; [ ] = another dose, or the depositor's remark. Hits appear at their usual frequency; 5.1% or so of the library scored in one or more.
SMILES,gsp ag,Menin MLL FP FL,ClpP mod,D2 agonist,Sfp PPTase inh,gsp antagonist,PINK1 expr mod
COc1ccc(Cl)cc1NC(=O)CSc1nc(NS(=O)(=O)c2ccc(C)cc2)cc(=O)[nH]1,8%[15.4 µM],4.0,-2.7%,-6.0,-5%,7%,4.7%
Cc1c(Cc2ccccc2)c(=O)oc2cc(OCC(=O)N[C@@H](Cc3ccccc3)C(=O)O)ccc12,·,0.8,4.5%,5.4,8%,-2%,0.5%
CC(=O)Nc1ccc(NC(=O)C(C)OC(=O)CNC(=O)c2sc3ccccc3c2Cl)cc1 (stereo unspecified),27%,-0.2,-5.3%,-2.5,-8%,21%,0.7%
O=C(CSc1nnc(Cc2cccs2)n1CCc1ccccc1)N1CCCc2ccccc21,16%,-0.1,0.9%,-1.2,-28%,-22%,-0.9%[38.3 µM]
Cc1ccccc1Cn1c([N+](=O)[O-])cnc1C,?,3.3,0.0%,0.2,18%,1%,-1.1%[38.3 µM]
O=C(Nc1ccc(Cl)cc1)Nc1ccc(Br)cn1,-7%,0.5,·,-5.1,0%,6%,8.9%
Cc1cccc(C(=O)O[C@@H]2[C@H](Cc3ccccc3)NS(=O)(=O)[C@H]3C[C@@H]4C=C[C@]23O4)c1,·,·,0.8%,-1.6,·,-5%,0.7%
COCCc1ccc(OC2(C)CCN(Cc3cccc(OC)c3OC)C2)cc1 (stereo unspecified),·,·,1.7%,-3.1,·,·,2.5%
COc1ccc(NC(=O)N2CCC(Cc3ccccc3)CC2)cc1,-6%,0.8,-3.4%,-5.5,17%,-12%,-1.4%
COc1ccc(Cl)cc1NC(=O)c1cc(-c2ccc(C)cc2O)n[nH]1,2%[15.4 µM],3.5,·,-1.5,20%,5%,6.1%
COC(=O)c1sc(-c2cccs2)cc1N,?,3.1,·,-0.4,2%,3%,3.6%
COc1cc(C(=O)O/N=C2/C=CC(=O)C(C)=C2C)cc(OC)c1OC,0%,-2.9,-6.3%,?,11%,-1%,-0.5%
C/C(=N\NC(=O)c1ccccc1O)c1cccc(NC(=O)c2ccccc2)c1,-37%[inhibitor],2.8,-1.7%,5.8,12%,-10%,0.4%
NC(c1csc(Nc2ccc(C(F)(F)F)cn2)n1)C1CCCCC1 (stereo unspecified),·,·,-4.4%,4.1,·,·,-1.4%
CCOC(=O)c1c(-c2ccccc2)oc2ccc(OCC)cc12,9%,-0.5,·,-4.2,?,-9%,15%
O=C(CSc1ccc(Cl)cc1)Nc1ccccc1N1CCN(C(=O)c2ccc(Cl)cc2)CC1,13%[15.4 µM],8.9,-2.0%,-3.2,15%,-11%,0.2%
Cc1cc(C(=O)N[C@H](c2ccccc2)[C@@]2(C)C[C@@H]2[C@@H](C)C(=O)Nc2ccc3ccccc3c2)n(C)n1,14%,0.7&4.9,-1.3%,-0.3,-20%&-1%,?,20%
CCC(C)C(=O)Nc1ccc([N+](=O)[O-])cc1OC (stereo unspecified),-24%,-2.9,·,3.9,21%,-4%,-0.6%
Cn1c(SCc2ccccc2)nc(C(F)(F)F)cc1=O,3%[15.4 µM],-4.1,·,-4.4,-1%,-12%,1.1%
COc1ccc(C(=O)C[n+]2ccc3c(c2)nc(-c2ccc(OC)cc2OC)n3C)cc1,8%,2.1,-13%,-0.6,12%,10%,-1.2%
COc1ccc(S(=O)(=O)N(C)c2ccc(C(=O)NC3CCCC3)cc2)cc1,?,-6.0,·,6.2,2%,-3%,-0.7%
CC(C)=CCc1c(O)c(CC=C(C)C)c2c(c1O)C(=O)CC(c1ccc(O)cc1)O2 (stereo unspecified),-76%[inhibitor],4.1,-1.4%,-3.7,7%,?,2.7%
C=CCN1CCN(C(c2ccccc2OC)c2nnnn2C(C)(C)C)CC1 (stereo unspecified),-2%[15.4 µM],-4.7,·,2.8,17%,18%,-0.1%
Cc1ccc(Cc2nnc(SCC(=O)Nc3ccc(C)cc3C)[nH]c2=O)cc1,-4%[15.4 µM],·,0.8%,-0.9,·,-30%,0.5%
CCC(=O)Nc1cccc(NC(=O)c2ccc3c(c2)OCCO3)c1,-48%[inhibitor],0.4,-0.7%,0.2,-8%,-10%,1.5%[38.3 µM]
O=C(NCc1cccs1)c1cc2c(s1)CS(=O)(=O)C2,-13%,-2.9,-1.6%,-2.5,6%,0%,4.0%[38.3 µM]
O=C(c1ccc(Cl)c(S(=O)(=O)N2CCc3ccccc3C2)c1)N1CCN(c2ccccc2)CC1,27%[15.4 µM],5.4,1.5%,-5.4,2%,?,-0.2%
O=C(Cc1cccs1)N1CCN(S(=O)(=O)c2ccc(F)c(F)c2)CC1,-40%[inhibitor],·,-0.2%,-1.3,·,6%,-0.5%
CCOC(=O)Cc1csc(NS(=O)(=O)c2ccc(Br)cc2)n1,-27%,-0.9,·,-2.9,11%,-4%,-0.4%
CC1(C)OC(=O)C(=NNc2ccccc2[N+](=O)[O-])C(=O)O1,1%,0.8,0.3%,-3.4,2%,7%,2.1%
Cc1nn(C)cc1NC(=O)c1cc2nc(-c3ccco3)cc(C(F)(F)F)n2n1,-4%[15.4 µM],1.9,·,-7.4,5%,-17%,3.3%
COc1cc(SC)ccc1C(=O)Nc1c(C)cccc1C,7%[15.4 µM],-0.7,1.5%,0.4,-4%,-2%,-1.4%
CCCNC(=S)Nc1ccc(Cl)cc1Cl,3%,1.3,1.3%,-0.8,15%,12%,-2.4%
Cc1ccc(-c2cc(NC(=O)c3ccccc3)on2)cc1,-2%[15.4 µM],0.7,·,0.0,-1%,0%,10%
COc1ccccc1CN1CCNC(=O)C1CC(=O)NCCC1=CCCCC1 (stereo unspecified),0%,0.3,-1.1%,-1.7,-12%,3%,0.2%
Cc1cccc(N2CCN(S(=O)(=O)c3ccc4c(c3)NC(=O)CS4)CC2)c1C,?,·,-0.3%,?,-2%,8%,3.3%
CCc1ccccc1N1CC23C=CC(O2)C(C(=O)OC)C3C1=O (stereo unspecified),5%,0.4,1.1%,-2.6,22%,6%,0.3%
Cc1cc(OCC(=O)N(Cc2ccco2)C2CCS(=O)(=O)C2)ccc1Cl (stereo unspecified),-17%[15.4 µM],0.6,·,-1.0,23%,-3%,-0.3%
CC(=O)Nc1cccc(CNCc2cccc(NC(C)=O)c2)c1,?,-1.1,-0.3%,-2.8,14%,-7%,-1.2%
COc1cccc(/C=C/C(=O)Nc2ccc3c(c2)OCCO3)c1,0%,-0.4,-8.7%,2.5,-6%,-11%,-0.6%
COc1ccc(CNC(=O)C(C)OC(=O)C23CC4CC(CC(O)(C4)C2)C3)cc1 (stereo unspecified),-20%,13,0.3%,2.7,0%,5%,0.7%
Cc1cccc(/N=C/c2nc(-c3ccccc3Br)oc2O)n1,0%,5.6,-14%,-6.8,1%,-3%,3.0%
CC(=O)Nc1ccc(OCC(=O)c2cc(C)ccc2C)cc1,4%,2.6,-0.3%,-3.6,-1%,-11%,-0.2%
Cc1ccc(C(=O)CNc2ccccc2)cc1,17%,1.2,·,-16,6%,-2%,0.3%
N#Cc1ccccc1NC(=O)CSC1=Nc2ccccc2C2CC=NN12 (stereo unspecified),5%[15.4 µM],0.1,·,-6.5,-14%,·,0.6%
CCCCN(C(C)=O)c1c(CC)nc2ccc(C(=O)NCc3cccs3)cn12,·,·,-28%,-5.8,·,·,-0.3%
Cc1ccc2c(=O)c(C(=O)c3ccc(F)cc3)cn(CC(=O)NCc3ccco3)c2n1,-48%[inhibitor],21,0.5%,5.2,7%,-15%,1.0%
CCc1cc(=O)oc2cc(C)cc(OCC(=O)NCCCN3CCOCC3)c12,21%,1.6,4.0%,-3.0,8%,-4%,-1.1%
COc1ccc(-c2noc(CCN3C(=O)c4ccccc4C3=O)n2)cc1OC,-1%,-1.2,3.9%,-3.9,0%,23%,12%
COc1ccc(-c2nn(-c3ccccc3)cc2CN2CCCO2)c(F)c1,-12%,4.1,·,0.4,13%,-6%,-0.9%
Cc1ccc(S(=O)(=O)N2CCC(C(=O)N[C@@H](C)C(=O)NCC3CCCO3)CC2)cc1 (stereo partly specified),-1%,-0.7,-1.0%,0.0,9%,5%,1.5%
COCc1nnc(NC(=O)COc2ccc3c(c2)OCO3)s1,-22%,-8.4,·,4.0,56µM*,-9%,-0.3%
N=C1C(c2ccccc2)=C(O)CN1c1ccccc1,0%[15.4 µM],1.3,·,-3.1,12%,-1%,-0.7%
CC(=O)Nc1cccc(-c2nnc(SCC(=O)N3CCCCC3)n2C)c1,-11%,0.0,0.5%,-0.8,-3%,10%,-2.2%
Cc1ccc(-c2nc(CN(Cc3cnn(C)c3)C(C)C)c(C)o2)o1,8%,-11,·,-3.5,-29%,4%,1.9%
CCn1c(SCC(=O)c2ccc(C)cc2)nnc1-c1ccncc1,-48%[inhibitor],-2.7,-0.3%,-1.1,2%,-5%,-0.3%[38.3 µM]
Cc1ccc(NC(=S)/N=C(\N)Nc2nc(C)c3cc(C)ccc3n2)c(C)c1,0%,5.6,?,-2.7,5%,3%,9.9%
COc1ccc(C(=O)Nc2ccc(Cl)cc2C(=O)NCCO)cc1,1%,2.2,-7.0%,-3.7,13%,4%,·
O=C(Nc1nnc(-c2ccc(Cl)cc2)o1)c1ccccc1Br,-13%,1.1,-0.3%,-4.2,23%,-27%,-0.3%
Cc1cccnc1NC(=O)CNC(=O)C1CCCCC1,-59%[inhibitor],·,-3.9%,-4.5,·,16%,-1.1%

# Assay outcomes: PubChem, National Center for Advancing Translational Sciences (NCATS)
